Assay outcomes from PubChem BioAssay.
PrP 5UTR inh – inhibition of PrP 5' UTR reporter expression; AID 488862, 2010; inhibition, % (test concentration not listed); cell-based PrP 5' UTR mRNA reporter, plate reader; actives 0.35% (n = 340,000);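 active means every replicate at 50% or more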;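 further: 0 = median of the neutral control wells; tested in H4 reporter cells; numbers are from one replicate; inactives centre near -14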
Bead autofluor – counter-screen for toxin protease inhibitors: compound fluorescence; compound autofluorescence counterscreen, microsphere flow cytometry; hits give high values; fluorescence intensity (test concentration not listed); actives 3.1% (n = 360,000); AID 624483;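 active means at least 3 SD above the mean of all compounds, about 16000 in these data; inconclusive means too few beads counted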;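 further: 100 nL of 1 mM stock went into each well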
Active calls of the source: *; ? = inconclusive. Not all compounds are listed; the hit share may differ from the screen's.

mol | PrP 5UTR inh | Bead autofluor
O=C1C=C(c2ccc3ccccc3c2)C[C@@H](c2ccc(Cl)cc2)C1 | -23.1 | 3544
FC(F)(F)c1cccc(N/N=C/c2ccccc2)c1 | -61.6 | 2299
C[C@H]1COC(=O)[C@H](Cc2ccc(F)cc2)C/C=C\C[C@H](CC(=O)NCCO)C(=O)N1 | -17.8 | 4040
COc1ccccc1N(C)S(=O)(=O)c1ccc(C(=O)NCC(c2ccco2)N2CCCCC2)cc1 (centres undefined) | -6.0 | 3283
CN1C[C@@H]2[C@@H]3C(=O)N(C)C(=O)[C@@H]3[C@](C)(C1=O)N2C(=O)c1ccc(Cl)cc1 | -20.9 | 3657
CCOC(=O)c1ccc(N=Cc2cnc(N)nc2N)cc1 | -9.6 | 4356
COC(=O)C1=C(C)N(Cc2ccccc2)C(=NCC(C)C)N[C@H]1c1cccc(C(F)(F)F)c1 | 7.8 | 4434
CC(C)(C)OC(=O)[C@H](CCCCN)NC(=O)c1[nH]cnc1C(=O)N[C@@H](Cc1ccccc1)C(=O)OCc1ccccc1 | -15.4 | 4056
C[C@H]1CN([C@@H](C)CO)C(=O)c2cc(NC(=O)NC3CCCCC3)ccc2O[C@H]1CN(C)C(=O)Nc1ccc(C(F)(F)F)cc1 | 2.4 | 3922
O=C(CCNc1n[nH]c(=O)[nH]c1=O)N/N=C/c1ccccc1Br | -18.4 | 4865
O=C(C[C@@H]1C/C=C/CC[C@@H](Cc2ccc(F)cc2)C(=O)OCCNC1=O)N[C@H](CO)Cc1ccccc1 | -28.0 | 2949
CC1(C)Oc2ccc3ccc(=O)oc3c2C[C@H]1O[C@@H]1O[C@H](CO)[C@@H](O)[C@H](O)[C@H]1O | -20.1 | 3961

Pulled by structure from the entries so far (4):
mol | PrP 5UTR inh | Bead autofluor
CN1C[C@@H]2[C@@H]3C(=O)N(C)C(=O)[C@@H]3[C@](C)(C1=O)N2C(=O)c1ccc(Cl)cc1 | -20.9 | 3657
O=C1C=C(c2ccc3ccccc3c2)C[C@@H](c2ccc(Cl)cc2)C1 | -23.1 | 3544
O=C(C[C@@H]1C/C=C/CC[C@@H](Cc2ccc(F)cc2)C(=O)OCCNC1=O)N[C@H](CO)Cc1ccccc1 | -28.0 | 2949
COc1ccccc1N(C)S(=O)(=O)c1ccc(C(=O)NCC(c2ccco2)N2CCCCC2)cc1 (centres undefined) | -6.0 | 3283

Next part:
mol | PrP 5UTR inh | Bead autofluor
C#CCOCCOCCOCCNc1nc(N2CCN(C(=O)[C@H](CCCCN)n3cc([C@@H](N)[C@H](C)CC)nn3)CC2)nc(N2CCN(C(=O)[C@H](CCCCN)n3cc([C@@H](N)CC(N)=O)nn3)CC2)n1 | -12.0 | 3849
CC(=O)OC1CC(OC2C(O)CC(OC3C(O)CC(OC4CCC5(C)C(CCC6C5CC(O)C5(C)C(C7=CC(=O)OC7)CCC65O)C4)OC3C)OC2C)OC(C)C1OC1OC(CO)C(O)C(O)C1O (centres undefined) | 90.4* | 7394
COC(=O)c1c(C)cccc1C1CN=NC12Cc1ccccc1C2=O (centres undefined) | 16.0 | 3645
O=C1c2ccccc2/C(=C\c2ccc3[nH]ccc3c2)N1c1ccccc1 | -12.5 | 3947
O=C(CSc1nc2ccc([N+](=O)[O-])cc2s1)c1ccc2ccccc2c1 | -11.5 | 4188
CC(C)(O)/C=C/C[C@](C)(O)C1CC[C@]2(C)C1[C@H](O[C@H]1O[C@@H](CO)[C@H](O)[C@@H](O)[C@@H]1O)CC1[C@@]3(C)CC[C@H](O)C(C)(C)C3[C@@H](O)C[C@]12C (some centres undefined) | -31.5 | 3858
CC(=O)OCC1OC(n2c3c(cc(C#N)c2=S)CCCC3)C(OC(C)=O)C(OC(C)=O)C1OC(C)=O (centres undefined) | -20.9 | 3707
CCOc1cc(C=NN=C2c3ccccc3-c3ccccc32)ccc1O | -14.5 | 3654
C=CCC[C@H](Cc1ccc(F)cc1)C(=O)OC[C@@H](C)NC(=O)[C@H](CC=C)CC(=O)NCCO | -9.6 | 3158
Cc1ccc(S(=O)(=O)N2CCC(C(=O)N/N=C/c3cccn3C)CC2)cc1 | -5.6 | 3632
CCCN1CC[C@@H]2c3cc(O)ccc3CC[C@@H]21 | -20.3 | 5285
CCN1C[C@@H]2[C@@H]3C(=O)N(C)C(=O)[C@@H]3[C@](C)(C1=O)N2C(=O)c1ccc(F)cc1 | -18.2 | 3897
CCCC(CC)Sc1nc2c([nH]1)c(=S)n(C)c(=O)n2C (centres undefined) | -9.5 | 4168
O=C(OCc1ccccc1)N1C=CC2CC1c1c(Cl)cccc12 (centres undefined) | -16.8 | 3718
O=C(NCCCNCc1ccccc1)/C(=N\O)c1ccccc1 | -7.7 | ?
C/C(=N\NC(=O)Cc1ccc(Cl)cc1)c1cccc(NC(=O)c2cccnc2)c1 | -7.3 | 5333
COc1ccc(-c2ccc3n2Cc2cnnn2-c2ccccc2-3)cc1 | -34.0 | 3749
COc1ccccc1NC(=O)C(C)OC(=O)C1COc2ccccc2O1 (centres undefined) | -9.0 | 3874
CCOc1cccc(C(=O)N/N=C/c2ccoc2)c1 | -10.8 | 5254
C#CCOCCOCCOCCNc1nc(N2CCN(C(=O)[C@H](C(C)C)n3cc(CCO)nn3)CC2)nc(N2CCN(C(=O)[C@H](Cc3ccc(O)cc3)n3cc(CCO)nn3)CC2)n1 | -6.5 | 4004
O=C(C1CCCCC1)N1CCC2CC1c1cc(Cl)ccc12 (centres undefined) | -16.7 | 3560
C[C@@H](O)Cc1cn(CC(=O)NCCCCCCCCCCC(=O)N2CCNCC2)nn1 | -11.5 | 3935
C=CC[C@H](CC(=O)OC(C)(C)C)C(=O)OC[C@@H]1CCCN1C(=O)[C@H](CC=C)CC(=O)N[C@H](CO)Cc1ccccc1 | -8.5 | 3993
CC(C)(C)OC(=O)C[C@H]1C/C=C\C[C@@H](CC(=O)NCCO)C(=O)N2CCC[C@H]2COC1=O | -21.2 | 4062

Record cards (already shown). Order of screens: PrP 5UTR inh | Bead autofluor
`CCN1C[C@@H]2[C@@H]3C(=O)N(C)C(=O)[C@@H]3[C@](C)(C1=O)N2C(=O)c1ccc(F)cc1` is listed with -18.2 | 3897
`O=C1C=C(c2ccc3ccccc3c2)C[C@@H](c2ccc(Cl)cc2)C1` is listed with -23.1 | 3544

Further compounds follow.
mol | PrP 5UTR inh | Bead autofluor
C[C@@]12C(=O)N(CC3CCCO3)CC(=O)N1[C@H]1c3ccccc3OC[C@@H]1[C@@H]2c1ccccc1 (some centres undefined) | -21.4 | 4135
CCCCCCCCCCCC1N=C(N)NC(CCCO)=C1C(=O)OC (centres undefined) | -8.7 | 2905
COc1ccc(Cl)cc1NC(=O)c1cccc([N+](=O)[O-])c1O | -7.4 | 4030
Clc1ccc2c(SCC3CO3)c3ccccc3nc2c1 (centres undefined) | -19.1 | 3852
O=C(NN=C(c1ccccc1)c1ccccn1)c1ccccc1 | 11.3 | 3602
c1ccc2c(c1)Oc1ccccc1S2 | -0.6 | 5976
O=C(NCCCCc1ccccc1)c1cccc(NC(=O)C2CCCC2)c1 | -20.2 | 3559
Brc1ccc(-c2ccccc2)cc1 | -9.1 | 5625
O=C1Cc2c(-c3ccccc3)cc(-c3cccc(Cl)c3)nc2-c2ccccc2N1 | -6.5 | 3162
C/C(CC(=O)Nc1ccc(C)c(Cl)c1)=N\NC(=O)c1ccncc1 | -6.8 | 4843
COc1ccc(/C=C2/CCCC(CN(C)C)C2=O)cc1 (centres undefined) | -11.1 | 3456
COc1ccc(CC(=O)C2C(=O)N(C)c3ccccc32)cc1OC (centres undefined) | -7.7 | 2713
C=CCC1(CC)C(=O)NC(=S)NC1=O | -9.9 | 3858
COc1ccc(OC[C@@H](O)CNC(=O)c2cccc3c2C(=O)c2ccc(-c4ccc(F)cc4OCc4ccccc4)cc2S3(=O)=O)cc1 | -12.5 | 2785
Cc1c(Cc2ccccc2)sc(/N=C/c2ccc3ccccc3c2)c1C(N)=O | 60.0* | 2645
O=C(Nc1cccc(Cl)c1)OCC#CCN1CCCC1 | -39.5 | 3251
Cn1c(=O)c2[nH]c(C3CC4CCC3C4)nc2n(C)c1=O (centres undefined) | -9.8 | 3039
O=C1C=CC2=C3c4cc(O)c(O)cc4CC3(O)COC2=C1O (centres undefined) | -19.8 | 4165
Cc1ccnc(NC(=O)c2cccc(NC(=O)c3ccc(Cl)c(Cl)c3)c2)c1 | -43.8 | 3882
NC(=O)c1nccc2ccccc12 | -19.1 | 3505
O=S(=O)(N(Cc1ccccc1)[C@H](CO)Cc1ccccc1)N(Cc1ccccc1)[C@H](CO)Cc1ccccc1 | -15.6 | 3438
COC(=O)C1=C(c2cccc(C#N)c2)C[C@@H]2CC[C@H]1N2C(=O)N1CCCCC1 | -7.7 | 4293
N#CC1(C(N)=O)OC12CCS(=O)(=O)c1ccccc12 (centres undefined) | -5.4 | 4807
CCN(CC)c1ccc(C(=C2C=CC(=[N+](CC)CC)C=C2)c2ccccc2)cc1 | 56.0* | 3396
C#CCOCCOCCOCCNc1nc(N2CCN(C(=O)CCCCCCCCCCNC(=O)Cn3cc(C[C@@H](C)O)nn3)CC2)nc(N2CCN(C(=O)CCCCCCCCCCNC(=O)[C@H](CCCCN)n3cc(CCCC(=O)O)nn3)CC2)n1 | -24.2 | 3690
O=C1CC[C@H](O)CCN1CCSc1ccc(Br)cc1 | 15.5 | 4107
O=C1c2ccccc2C(=O)N1OCCCN1C(=O)c2ccccc2S1(=O)=O | 52.0 | 3499
CCc1nnc(N/N=C/c2c(C)[nH]c3ccccc23)n1N | 3.4 | 4918
CCN1C[C@@H]2[C@@H]3C(=O)N(C)C(=O)[C@@H]3[C@](Cc3ccccc3)(C1=O)N2C(=O)c1ccc(Br)cc1 | -9.1 | 3558
COc1cc(Cl)c(C)cc1NCC(=O)Nc1cccc(S(=O)(=O)N2CCCC2)c1 | -16.4 | 3849
C[C@@H]1CN([C@@H](C)CO)C(=O)Cc2cc(NC(=O)Nc3cccc4ccccc34)ccc2O[C@@H]1CN(C)S(C)(=O)=O | -1.6 | 3810
COc1ccc2c(c1)[C@H]1[C@H](CO2)[C@H](c2ccccc2)[C@]2(C)C(=O)Nc3cc(C)ccc3C(=O)N12 | -131.0 | 4602
Cc1cccc(C(=O)OCC(=O)NCc2ccc3c(c2)OCO3)c1C | -6.0 | 2990
C[C@H](CO)N1C[C@H](C)[C@@H](CN(C)Cc2ccccc2)Oc2c(NC(=O)Cc3ccccc3)cccc2C1=O | -7.8 | 4076
C=C[C@H]1[C@H](O[C@@H]2O[C@H](CO)[C@@H](O)[C@H](O)[C@H]2O)OC=C2C(=O)OCC[C@]21O | -19.4 | 3496
CCC(=O)N1CCc2cc(Br)c(S(=O)(=O)NCCN3CCCCC3CC)cc21 (centres undefined) | -36.9 | 3924

The results go on.
Structure	PrP 5UTR inh	Bead autofluor
C[C@@H]1C(=O)O[C@H]2[C@H](O)[C@]34[C@@H]5OC(=O)[C@]3(OC3OC(=O)[C@H](O)C34[C@H](C(C)(C)C)[C@@H]5O)[C@@]12O (some centres undefined)	-24.7	5895
C[C@@H]1O[C@@H](O[C@@H]2C(=O)c3c(O)cc(O)cc3O[C@H]2c2ccc(O)c(O)c2)[C@H](O)[C@H](O)[C@H]1O	-19.9	4012
O=C1CCC[C@@H]2C[C@@]3(C[C@@H]4CCN1[C@H]24)Nc1cc(Cl)c(Cl)cc1NC3=NCc1ccccc1	-29.5	3536
CC(C)(C)NCCC(O)c1cc(C(F)(F)F)nc2c(C(F)(F)F)cccc12 (centres undefined)	-5.1	3708
Cn1nnnc1Sc1ncnc2scc(-c3ccc[nH]3)c12	-8.3	3796
COc1cccc(C(=O)Nc2cc(S(=O)(=O)N3CCOCC3)ccc2N2CCOCC2)c1	-0.9	2920
CC1C(c2ccc3c(c2)OCO3)c2cc3c(cc2OC1N1CCOCC1)OCO3 (centres undefined)	-4.9	2691
COc1cc2c(cc1O)[C@@H]1Cc3ccc(OC)c(O)c3CN1CC2	-28.9	6264
Cn1c(SCC(=O)Nc2sccc2C#N)nnc1-c1ccccc1	-25.1	2542
CC1(C)CC[C@]2(C(=O)O)CC[C@]3(C)C(=CC[C@@H]4[C@@]5(C)CC[C@H](O[C@@H]6O[C@H](C(=O)O)[C@@H](O)[C@H](O[C@@H]7OC[C@H](O)[C@H](O)[C@H]7O)[C@H]6O)C(C)(C)[C@@H]5CC[C@]43C)[C@@H]2C1	0.3	4424
Cc1cccc([C@H](NC(=O)OC(C)(C)C)C(=O)OC(C)(C)C)c1	-17.2	3414
C#CCOCCOCCOCCNc1nc(N2CCN(C(=O)[C@H](C(C)C)n3cc(CCO)nn3)CC2)nc(N2CCN(C(=O)[C@H](C)n3cc(CCCN=C(N)N)nn3)CC2)n1	-15.1	4222
COc1cc(NC(=O)[C@H]2CCCN2S(=O)(=O)c2cccc3cccnc23)cc(OC)c1OC	-9.9	2870
O=C(CC(O)(c1ccccc1)c1ccccc1)Nc1ccccn1	2.9	4075
C[C@H](NC(=O)c1nc[nH]c1C(=O)NCc1ccc(CNC(=O)OC(C)(C)C)cc1)c1ccccc1	-16.5	3555
COc1cc(-c2cc(=O)c3c(C)cc(O)cc3o2)cc(OC)c1OC	-5.0	3517
CCc1ccc(C(=O)NCC2(c3ccccc3)CCOCC2)o1	-33.8	2914
CCN(c1ccccc1)S(=O)(=O)c1ccc(C(=O)NCc2ccco2)cc1	-18.6	5563
COC(=O)C1=C(c2cccc3c2S(=O)(=O)c2ccccc2-3)C[C@@H]2CC[C@H]1N2C(=O)N1CCOCC1	-14.0	3381
C#CCOCCOCCOCCNc1nc(N2CCOCC2)nc(N2CCN(C(=O)[C@H](CC(N)=O)n3cc([C@@H](N)C(C)C)nn3)CC2)n1	-20.4	3922
COc1cc(C2C3=C(COC3=O)Oc3cc4c(cc32)OCO4)ccc1OC(C)=O (centres undefined)	33.5	3300
CC(C)C[C@@H](CN1CCC[C@@H]1CN1C(=O)C(=O)NC[C@@H]1Cc1ccccc1)N1C[C@H](Cc2ccc(O)cc2)N(CC2CCCCCC2)C(=O)C1=O	-26.3	4084
O=C(Nc1cccc2ccccc12)N(c1ccccc1)c1ccccc1	-22.6	3005
COc1ccc(-c2nn(-c3ccccc3)cc2/C=N/Nc2cccc(C(=O)O)c2)cc1	-59.0	4288
c1ccc(CNCCCn2cnc3c(OCc4ccccc4)ncnc32)cc1	-0.2	2931
